AF4-AF9 inh: MLL-AF4/AF9 protein interaction inhibition; inhibition, % at 10 µM; 350,000 compounds, 0.47% hits; AID 651704; P42568; AlphaScreen, biotin-AF4 peptide binding to FLAG-AF9;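 active = every replicate reaching a set inhibition limit, whatever the replicate mean, cut at about 25% in these data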;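 note: 0% = plate neutral control median and 100% = total signal loss; the record names both 10 and 1 µM as test concentration; the first replicate is given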
Target sequence (P42568 whole entry, looked up): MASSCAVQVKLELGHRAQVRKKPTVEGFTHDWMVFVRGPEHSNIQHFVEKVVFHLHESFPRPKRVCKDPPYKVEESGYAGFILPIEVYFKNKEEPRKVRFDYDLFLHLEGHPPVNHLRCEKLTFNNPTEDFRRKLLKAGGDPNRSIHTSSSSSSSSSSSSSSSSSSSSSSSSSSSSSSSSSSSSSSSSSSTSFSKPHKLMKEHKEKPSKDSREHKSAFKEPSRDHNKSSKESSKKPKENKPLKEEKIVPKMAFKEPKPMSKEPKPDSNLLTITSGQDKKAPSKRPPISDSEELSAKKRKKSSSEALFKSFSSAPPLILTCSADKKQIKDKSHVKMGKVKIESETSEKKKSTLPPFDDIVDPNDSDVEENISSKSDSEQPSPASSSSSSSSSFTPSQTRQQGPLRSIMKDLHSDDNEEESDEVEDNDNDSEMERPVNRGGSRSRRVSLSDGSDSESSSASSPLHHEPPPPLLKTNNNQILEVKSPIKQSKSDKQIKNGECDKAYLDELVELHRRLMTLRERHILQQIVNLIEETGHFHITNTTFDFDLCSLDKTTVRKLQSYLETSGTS
rRNA inh HTS: inhibits bacterial ribosomal RNA function over humanized ribosomes; 350,000 compounds, 1.6% hits; AID 720706; E. coli WT GFP vs humanized-ribosome RFP mutants, fluorescence, 24 h; hits give low values; DMSO median 0, no signal -100; GFP signal change (wild-type ribosome), % (test concentration not listed);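 active = significant combined selectivity score with lowered wild-type GFP, culture density cut under 30%, mutant RFP and density less affected; inactive = any of these conditions unmet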; note: one replicate is shown; some compounds called inactive have numbers as strong as hits
rRNA inh HTS OD600: also measured in rRNA inh HTS; calls as there; OD600 change, %; measured here: OD600 growth;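 optical density of the mix in the first replicate; 0 = DMSO median and -100 = no signal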
rRNA inh HTS RFP: further read-out of rRNA inh HTS, marked with its call; RFP signal change, %; measured here: RFP humanized mutant strains;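 first replicate; 0 = DMSO median and -100 = no signal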
* hit, by the source's call; & = joins results of further samples.

A first look:
entry	AF4-AF9 inh	rRNA inh HTS	rRNA inh HTS OD600	rRNA inh HTS RFP	molecule
1	-2.7	-4	-4	-0.9	CO[C@@H]1CN(C)C(=O)c2ccc(NC(=O)C3CCCC3)cc2OC[C@@H](C)N(C(=O)CC2CC2)C[C@H]1C
2	-1.1	0	6	-1.9	CC(C)NC(=O)N[C@@H]1CC[C@H](CCNS(=O)(=O)c2ccc(F)cc2)O[C@@H]1CO

All compounds of this part, from the start:
entry	AF4-AF9 inh	rRNA inh HTS	rRNA inh HTS OD600	rRNA inh HTS RFP	molecule
1	-2.7	-4	-4	-0.9	CO[C@@H]1CN(C)C(=O)c2ccc(NC(=O)C3CCCC3)cc2OC[C@@H](C)N(C(=O)CC2CC2)C[C@H]1C
2	-1.1	0	6	-1.9	CC(C)NC(=O)N[C@@H]1CC[C@H](CCNS(=O)(=O)c2ccc(F)cc2)O[C@@H]1CO
3	2.4	-1	4	4.4	CCS(=O)(=O)N1CCCCN2[C@H](C1)[C@@H](c1ccc(C#Cc3ccccn3)cc1)[C@@H]2CO
4	0.8	4	4	-0.6	COc1ccc2c3c(n(C)c2c1)[C@H](CO)N(C(=O)c1cccnc1)CC31CN(C)C1
5	-3.6	3	-15	0.3	CN(C)CC#Cc1ccc([C@@H]2[C@@H](CO)N3C(=O)CN(C(=O)Cc4cccnc4)C[C@@H]23)cc1
6	-1.9	0	4	-2.1	CN1C(=O)c2cc(NC(=O)NC3CCCC3)ccc2OC[C@@H]2O[C@@H](CC(=O)NCC3CC3)CC[C@@H]21
7	-0.7	-3	-14	-1.8	Cc1ccc(S(=O)(=O)NCC[C@@H]2CC[C@@H](NC(=O)CC3CC3)[C@@H](CO)O2)cc1
8	-0.5	-3	11	0.6	CCNC(=O)Nc1ccc2c(c1)C(=O)N(C)[C@H]1CC[C@@H](CC(=O)N[C@@H](C)c3ccccc3)O[C@H]1CO2
9	-0.8	-1	1	-1.2	CCCNC(=O)Nc1ccc2c(c1)C(=O)N(C)[C@@H]1CC[C@H](CC(=O)NCC3CCCCC3)O[C@H]1CO2
10	18	2	-29	9.8	COc1ccc(NC(=O)Nc2ccc3c(c2)C(=O)N([C@@H](C)CO)C[C@H](C)[C@@H](CN(C)Cc2ccc4c(c2)OCO4)OCCCC[C@H](C)O3)cc1
11	2.2	-2	-12	3.1	C[C@@H]1CN([C@H](C)CO)S(=O)(=O)c2ccc(C3=CCCCC3)cc2O[C@@H]1CN(C)C(=O)C1CC1
12	2.6	-4	3	1.0	O=C(c1ccc2c(c1)OCO2)N1C[C@H]2[C@@H](c3ccccc31)[C@H](CO)N2CC1CCCC1
13	28*	-15	-13	8.5	CN1c2ccc(C3=CCCCC3)cc2[C@@H]2[C@@H](CCN2C(=O)C2CCC2)[C@@H]1CO
14	-4.4	-1	5	-2.8	C[C@@H]1CN([C@H](C)CO)C(=O)c2cc(NS(=O)(=O)c3ccccc3)ccc2O[C@H]1CN(C)C(=O)Nc1ccc2c(c1)OCO2
15	-2.2	-8	-12	-3.2	O=S(=O)(N[C@H]1CC[C@@H](CCn2cc(-c3cccc(F)c3)nn2)O[C@@H]1CO)c1ccc(F)cc1
16	-1.4	1	2	0.9	O=C(NCc1cccc(F)c1)[C@@H]1[C@@H](CO)[C@@H]2Cn3c(cccc3=O)[C@H]1N2C(=O)c1cnccn1
17	-0.4	-4	-10	-3.4	N#Cc1ccc(-c2ccc([C@@H]3[C@@H](CO)N4C(=O)CN(C(=O)Cc5ccccc5)C[C@H]34)cc2)cc1
18	8.5	-3	-32	16	CC=Cc1ccc2n(c1=O)C[C@@H]1[C@@H](CO)[C@H](C(=O)Nc3ccc(-c4ccccc4)cc3)[C@H]2N1CC (mixture of isomers)
19	-3.2	1	3	-1.4	C[C@@H](NC(=O)C[C@@H]1C=C[C@@H](NC(=O)CN2CCOCC2)[C@H](CO)O1)c1ccccc1
20	4.9	0	-8	0.3	C[C@H]1CN([C@@H](C)CO)C(=O)c2cc(NC(=O)Nc3ccc4c(c3)OCO4)ccc2O[C@@H]1CN(C)Cc1ccc(C(F)(F)F)cc1
21	-0.1	3	-7	0.7	O=C1CN(S(=O)(=O)c2cccc(F)c2)C[C@@H]2[C@@H](c3ccc(C4=CCCC4)cc3)[C@H](CO)N12
22	9.6	-8	-4	2.2	C[C@H]1CN([C@@H](C)CO)S(=O)(=O)c2ccc(/C=C/c3ccccc3)cc2O[C@H]1CN(C)Cc1ccc(C(=O)O)cc1
23	-0.4	4	-11	-2.6	O=C(C[C@H]1CC[C@@H]2[C@H](COC[C@H](O)CN2C(=O)Nc2ccccc2)O1)NCCc1ccncc1
24	-21	6	3	-1.2	O=C(C[C@@H]1CC[C@@H]2[C@H](COC[C@H](O)CN2C(=O)c2ccncc2)O1)NCc1cccc(F)c1

A second format for 6 compounds above.
Results follow in this order: AF4-AF9 inh, rRNA inh HTS, rRNA inh HTS OD600, rRNA inh HTS RFP
23	O=C(C[C@H]1CC[C@@H]2[C@H](COC[C@H](O)CN2C(=O)Nc2ccccc2)O1)NCCc1ccncc1
    -0.4, 4, -11, -2.6
13	CN1c2ccc(C3=CCCCC3)cc2[C@@H]2[C@@H](CCN2C(=O)C2CCC2)[C@@H]1CO
    28*, -15, -13, 8.5
19	C[C@@H](NC(=O)C[C@@H]1C=C[C@@H](NC(=O)CN2CCOCC2)[C@H](CO)O1)c1ccccc1
    -3.2, 1, 3, -1.4
21	O=C1CN(S(=O)(=O)c2cccc(F)c2)C[C@@H]2[C@@H](c3ccc(C4=CCCC4)cc3)[C@H](CO)N12
    -0.1, 3, -7, 0.7
16	O=C(NCc1cccc(F)c1)[C@@H]1[C@@H](CO)[C@@H]2Cn3c(cccc3=O)[C@H]1N2C(=O)c1cnccn1
    -1.4, 1, 2, 0.9
24	O=C(C[C@@H]1CC[C@@H]2[C@H](COC[C@H](O)CN2C(=O)c2ccncc2)O1)NCc1cccc(F)c1
    -21, 6, 3, -1.2

(continued)
entry	AF4-AF9 inh	rRNA inh HTS	rRNA inh HTS OD600	rRNA inh HTS RFP	molecule
25	0.5	3	6	-0.5	O=C(NCc1ccccc1)[C@@H]1[C@@H](CO)[C@@H]2Cn3c(cccc3=O)[C@@H]2N1C(=O)C1CC1
26	0.1	5	-9	1.5	C[C@@H]1CN([C@H](C)CO)C(=O)Cc2cc(NC(=O)Nc3cccc4ccccc34)ccc2O[C@@H]1CN(C)S(=O)(=O)c1ccc(F)cc1
27	0.2	2	6	4.8	COc1ccc(CCNC(=O)c2cc([C@@H](NC(=O)OC(C)(C)C)C(C)C)sc2N)cc1OC
28	2.4	2	10	1.0	C[C@@H]1CN([C@H](C)CO)S(=O)(=O)c2ccc(C#CCN(C)C)cc2O[C@@H]1CN(C)C(=O)C1CCCCC1
29	1.5	0	0	-0.7	O=C(Nc1ccc2c(c1)[C@@H]1C[C@H](CC(=O)N3CCOCC3)O[C@@H](CO)[C@@H]1O2)NC1CCCC1
30	-1.9	-1	-20	-2.8	C[C@H](CO)N1C[C@H](C)[C@H](CN(C)C(=O)NC2CCCCC2)Oc2ccc(NC(=O)NC3CCCCC3)cc2C1=O
31	-1.1	2	2	-1.8	COc1cccc(S(=O)(=O)N[C@@H]2CC[C@@H](CC(=O)NC3CCC3)O[C@H]2CO)c1
32	-3.6	-28	-72	-6.7	CN(CC(=O)Nc1ccc(Cl)c(C(F)(F)F)c1)C(=O)C1CCN(C(=O)c2ccc(Cl)cc2)CC1
33	-3.7	1	4	-2.4	CN1CCN(C(=O)C[C@H]2C[C@H]3c4cc(NC(=O)NC5CCCC5)ccc4O[C@H]3[C@H](CO)O2)CC1
34	-8.1	2	10	2.0	COCC#Cc1cnc2c(c1)C(=O)N([C@H](C)CO)C[C@H](C)[C@@H](CN(C)S(C)(=O)=O)O2
35	12	-55	-64	-3.6	Cc1cccc(S(=O)(=O)N2CCCCN3[C@H](CO)[C@@H](c4ccc(C#CC5CC5)cc4)[C@H]3C2)c1
36	0.1	-3	1	2.6	C[C@H](CO)N1C[C@H](C)[C@H](CN(C)S(=O)(=O)c2ccccc2)Oc2ccc(NC(=O)NC3CCCCC3)cc2C1=O
37	0.2	0	-10	-1.1	CC(=O)N(C)C[C@H]1Oc2ncc(C#CCC3CCCC3)cc2C(=O)N([C@@H](C)CO)C[C@@H]1C
38	3.2	2&1	1&8	-1.0&-0.3	NCC[C@@H]1CC[C@H](NC(=O)c2ccccc2F)[C@H](CO)O1
39	-6.9	9	8	-2.3	COCC(=O)N1CCC2(CC1)CN[C@@H](CO)c1c2c2ccc(OC)cc2n1C
40	0.3	-4	-8	-2.0	CO[C@H](CN(C)Cc1cc(F)ccc1F)[C@@H](C)CN([C@H](C)CO)S(=O)(=O)c1ccc(Cl)cc1
41	-1.0	0	0	0.7	O=C(N[C@@H]1CC[C@H](CCNS(=O)(=O)c2cccc(Cl)c2)O[C@H]1CO)c1ccc(F)cc1
42	11	0	-1	-4.2	Cc1noc(C)c1NC(=O)NCC[C@H]1CC[C@H](NC(=O)Nc2cccc(F)c2)[C@@H](CO)O1
43	-1.1	-3	-3	-2.3	C[C@@H]1CN([C@@H](C)CO)C(=O)c2cc(NC(=O)Nc3ccccc3)ccc2O[C@@H](C)CCCCO[C@@H]1CN(C)C(=O)NC1CCCCC1
44	3.9	-2	0	-1.1	Cc1noc(C)c1S(=O)(=O)N(C)C[C@H]1Oc2c(NC(=O)c3ccc(-c4nccs4)cc3)cccc2C(=O)N([C@@H](C)CO)C[C@H]1C
45	-3.2	0	2	-2.4	O=C(N[C@H]1C=C[C@@H](CC(=O)N2CCc3ccccc3C2)O[C@H]1CO)C1CCC1
46	-0.1&-2.4	0&-61	-26&-72	26&-15	COc1cccc(-c2ccc(C3[C@H]4CNC[C@@H]3N4Cc3ccc(F)cc3)cc2)c1 (some centres not stated)
47	-9.9	1	-1	-0.8	CO[C@H]1CN(C)C(=O)c2cc(NC(=O)c3cnccn3)ccc2OC[C@H](C)N(C(=O)C2CC2)C[C@H]1C
48	-3.4	8	12	-2.2	CC(=O)N(C)C[C@@H]1Oc2ncc(C#CC3(O)CCCC3)cc2C(=O)N([C@@H](C)CO)C[C@H]1C
49	0.1	-3	4	-4.1	CN(C)C(=O)C[C@@H]1CC[C@@H](NC(=O)C2CCOCC2)[C@@H](CO)O1
50	-3.0	0	-2	-0.8	Cn1cnc(S(=O)(=O)N2C[C@H](O)COC[C@H]3O[C@H](CC(=O)NCc4cc(F)cc(F)c4)CC[C@@H]32)c1
51	1.6	2	4	-0.4	N#C[C@@H]1[C@H](c2ccc(C3=CCCCC3)cc2)[C@H](CO)N1C(=O)C1CCOCC1
52	-2.3	-2	4	-1.5	COc1ccccc1-c1ccc([C@H]2[C@@H](CO)N3CCCCN(C(=O)c4ccncc4)C[C@@H]23)cc1
53	2.5	-9	-2	6.6	COc1ccc(NC(=O)c2cc(-c3ccc(F)cc3OC(C)C)n[nH]2)c(OC)c1
54	0.8	1	3	-0.6	COc1ccc(NC(=O)N(C)C[C@H]2Oc3c(NC(=O)Nc4ccc(F)cc4)cccc3C(=O)N([C@H](C)CO)C[C@@H]2C)cc1
55	0.1	1	2	-0.8	COc1ccc(S(=O)(=O)N[C@H]2CC[C@H](CC(=O)O)O[C@@H]2CO)cc1
56	4.1	3	-3	1.6	CNC[C@H]1OCCCC[C@@H](C)Oc2ccc(NS(=O)(=O)c3ccc(OC)cc3)cc2C(=O)N([C@H](C)CO)C[C@H]1C
57	-3.2	3	6	0.1	CC(C)NC(=O)N(C)C[C@@H]1Oc2ccc(NC(=O)C3CCCCC3)cc2C(=O)N([C@@H](C)CO)C[C@H]1C
58	1.5	-1	2	-0.3	C[C@H](CO)N1C[C@H](C)[C@H](CN(C)C(=O)Nc2ccc(F)cc2)OCCCC[C@H](C)Oc2ccc(NC(=O)Nc3ccc(F)cc3)cc2C1=O
59	1.7	-2	3	-1.5	C[C@H]1CN([C@@H](C)CO)C(=O)c2ccccc2-c2ccccc2CO[C@@H]1CN(C)S(=O)(=O)c1cccs1
60	1.5	-60	-79	-20	O=C(Nc1ccc(Cl)c(Cl)c1)N[C@H]1CC[C@@H](CCNC(=O)c2ccc(F)cc2)O[C@@H]1CO
61	-2.3	3	12	1.5	C[C@@H]1CN([C@@H](C)CO)S(=O)(=O)c2ccc(-c3ccc(C(=O)N(C)C)cc3)cc2O[C@@H]1CN(C)Cc1ccc2c(c1)OCO2
62	-12	2	1	1.3	C[C@@H]1CCCCO[C@H](CN(C)Cc2ccc(C(=O)O)cc2)[C@@H](C)CN([C@H](C)CO)C(=O)c2cc(NC(=O)Nc3ccccc3)ccc2O1
63	2.5	4	3	0.2	C[C@H]1CN([C@@H](C)CO)C(=O)Cc2cc(NC(=O)Nc3ccc4c(c3)OCO4)ccc2O[C@@H]1CN(C)Cc1ccc(-c2ccccc2)cc1
64	0.6	0	2	-4.5	COc1ccc(NC(=O)Nc2ccc3c(c2)CC(=O)N([C@@H](C)CO)C[C@@H](C)[C@H](CN(C)Cc2ccc(C(=O)O)cc2)O3)cc1
65	-2.5	1	6	-4.6	CO[C@H]1CC[C@@H]2CCOc3ccc(C#N)cc3C(=O)N(C)CCCC(=O)N(C)C[C@@H]1O2
66	-0.7	2	4	-1.9	CS(=O)(=O)Nc1ccc2c(c1)[C@H]1C[C@@H](CC(=O)NCc3ccccc3F)O[C@@H](CO)[C@H]1O2

These rows are one share of the data, so the mix of outcomes need not match the whole.
